From PubChem
supercomplex: modulators of mitochondrial supercomplex assembly, cell-based, luminescence, Hoechst nuclei count (AID 1645838); hit rate 5% among 2,000; z-score at 11 µM unless noted; Cells, luminescence/Hoechst cell count ratio, supercomplex reporter; active compounds read high;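 active = mean z-score of two plates above 1.96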;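 note: control cybrid cells; higher means more mitochondrial supercomplex formation; U2OS-based cells read after two days; 0 = mean of sample wells on the plate; doses worked out from stocks diluted about 900-fold with the highest of each compound shown; many of its hits are not listed in these tables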
supercomplex cell count: second read-out of supercomplex, no call of its own (marks repeat the call); cell count; measured here: cell number, Hoechst nuclei count;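 nuclei per well as mean of two plates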
Numbers without * were called inactive.

Preview (2 entries):
SMILES	supercomplex	supercomplex cell count
CS(=O)(=O)c1ccc(C2=C(c3ccccc3)C(=O)OC2)cc1	0.079	5150
CCCCCCCCc1cccc(NC(=O)C(N)COP(=O)(O)O)c1 (stereo unspecified)	-0.19	6816

The list itself (from the top)
SMILES	supercomplex	supercomplex cell count
CS(=O)(=O)c1ccc(C2=C(c3ccccc3)C(=O)OC2)cc1	0.079	5150
CCCCCCCCc1cccc(NC(=O)C(N)COP(=O)(O)O)c1 (stereo unspecified)	-0.19	6816
CN(C)CCC1(c2ccc(Cl)cc2)Cc2ccccc2C(=O)O1 (stereo unspecified)	0.011	6172
CNC(=O)c1cc(Oc2ccc3nc(NC4CCCCC4O)sc3c2)ccn1 (stereo unspecified)	-0.42	7715
O=C(Nc1cc(NC(=O)c2ccccc2)c(C(=O)O)cc1C(=O)O)c1ccccc1	0.23	6460

Quoted at random: two records from the list.
SMILES	supercomplex	supercomplex cell count
O=C(Nc1cc(NC(=O)c2ccccc2)c(C(=O)O)cc1C(=O)O)c1ccccc1	0.23	6460
CNC(=O)c1cc(Oc2ccc3nc(NC4CCCCC4O)sc3c2)ccn1 (stereo unspecified)	-0.42	7715

An excerpt; the hit share may differ from the screen's.
